Screens from PubChem BioAssay.
B2AR ag – activates human beta-2 adrenergic receptor causing internalization | Am2.2-beta2AR cells, FAP receptor internalization, flow cytometry; reference of the scale not given here | response, % (test concentration not listed) | 0.43% of 340,000 active;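 active = response above a set limit, near 3 SD of response in nonfluorescent compounds, cut at about 42% in these data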;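 also: stock transfer was 100 nL into about 11 µL; a reference agonist was the positive control; negative values mostly stem from fluorescent compounds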
UCH37 inh – human UCH37 deubiquitinating enzyme inhibition. inhibition, % (test concentration not listed). 0.33% of 330,000 active. Q9Y5K5. purified proteasome/UCH37, Ub-AMC cleavage fluorescence;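 active = mean of two replicates above 20%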;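 also: 0% = compound-free wells with enzyme and 100% = wells lacking proteasome; stock transfer was 100 nL into about 20 µL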
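Material: Human UCH37 enzyme supplied as purified proteasome complex | Schedule: 30 min preincubation with enzyme, 25 min cleavage at room temperature | Detection: AMC fluorescence 355/460 nm | Measure: % inhibition of Ub-AMC cleavage fluorescence | Controls: Wells without proteasome as full block, compound-free enzyme plus substrate as uninhibited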
E coli growth – inhibitors of Escherichia coli growth; OD600, 23 h; active compounds read low; OD600 absorbance (test concentration not listed); 0.21% of 330,000 active; AID 1053175;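 active = OD600 absorbance below the run mean of sample wells minus 3.6 SD, in any replicate, cut at about 0.56 in these data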;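 also: stock transfer was 300 nL into about 60 µL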
ALR H2O2 inh – blocks human ALR sulfhydryl oxidase activity; purified ALR, DTT oxidation, H2O2 HRP-luminol luminescence; inhibition, % (test concentration not listed); 3.8% of 290,000 active; AID 485317;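 active = mean and each replicate at 75% or more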;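 also: stock transfer was 7.5 nL into about 7.5 µL; 0% = neutral wells and 100% = wells with inactivated enzyme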
Target sequence (P55789 whole entry, looked up): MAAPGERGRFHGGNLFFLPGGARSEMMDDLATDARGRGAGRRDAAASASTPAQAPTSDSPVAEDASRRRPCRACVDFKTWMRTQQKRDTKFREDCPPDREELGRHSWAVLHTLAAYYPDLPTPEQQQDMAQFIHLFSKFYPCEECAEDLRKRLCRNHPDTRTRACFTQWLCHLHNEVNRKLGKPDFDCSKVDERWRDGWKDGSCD
HNF4A DNA FP – change in binding of human HNF4 alpha to DNA | P41235 | activity change, % at 10 µM | HNF4a-FITC DNA binding, fluorescence polarization, 1 h | 0.3% of 360,000 active; in the data active = activity change above about 30%, passing the limit was not always enough;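 also: controls were the assay level and a saturating level of protein; the project sought stronger binding though the title names inhibitors; some compounds called inactive have numbers as strong as hits; positive values seem to mean higher polarization but the record does not say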
Target sequence (P41235 whole entry, looked up): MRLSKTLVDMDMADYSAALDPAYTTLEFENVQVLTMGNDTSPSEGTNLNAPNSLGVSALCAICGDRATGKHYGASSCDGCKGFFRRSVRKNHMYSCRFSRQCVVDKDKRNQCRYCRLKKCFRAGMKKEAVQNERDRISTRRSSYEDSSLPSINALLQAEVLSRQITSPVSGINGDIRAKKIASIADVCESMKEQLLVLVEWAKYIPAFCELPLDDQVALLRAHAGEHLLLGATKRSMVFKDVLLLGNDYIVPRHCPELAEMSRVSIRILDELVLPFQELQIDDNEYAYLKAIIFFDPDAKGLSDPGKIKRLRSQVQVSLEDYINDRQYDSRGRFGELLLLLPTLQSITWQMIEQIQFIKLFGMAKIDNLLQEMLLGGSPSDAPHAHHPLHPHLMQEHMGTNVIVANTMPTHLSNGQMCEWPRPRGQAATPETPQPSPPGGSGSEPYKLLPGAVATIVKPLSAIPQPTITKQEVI
FGF22 binding – FGF22 (human) thermal shift binding; recombinant FGF22 thermal shift, SYPRO orange fluorescence; percent of sucrose octasulfate shift, DMSO zero; AID 651658; calls only at 9.99 µM; Q9HCT0; 1.5% of 340,000 active;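 active = melting point raised past a set limit in the mean and every replicate; three in four hits are not shown here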
Target sequence (Q9HCT0 whole entry, looked up): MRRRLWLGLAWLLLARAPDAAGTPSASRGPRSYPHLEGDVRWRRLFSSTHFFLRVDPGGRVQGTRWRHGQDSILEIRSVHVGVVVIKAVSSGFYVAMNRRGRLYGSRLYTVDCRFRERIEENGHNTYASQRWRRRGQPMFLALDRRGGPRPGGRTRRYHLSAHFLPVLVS
Ecoli rRNA inh – inhibits bacterial ribosomal RNA function over humanized ribosomes. 1.6% of 350,000 active. E. coli WT GFP vs humanized-ribosome RFP mutants, fluorescence, 24 h; active compounds read low; DMSO median 0, no signal -100. GFP signal change (wild-type ribosome), % (concentration not given with the values);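 active = significant combined selectivity score with lowered wild-type GFP, culture density cut under 30%, mutant RFP and density less affected; inactive = any of these conditions unmet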; also: one replicate is shown; some compounds called inactive have numbers as strong as hits
Ecoli rRNA inh OD600 – further read-out of Ecoli rRNA inh, marked with its call; OD600 change, %; measured here: OD600 growth;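 optical density of the mix in the first replicate; 0 = DMSO median and -100 = no signal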
Ecoli rRNA inh RFP – further read-out of Ecoli rRNA inh, marked with its call; RFP signal change, %; measured here: RFP humanized mutant strains;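 first replicate; 0 = DMSO median and -100 = no signal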
Starred values were filed as active, the others as inactive; i = inactive; · = not tested or not shown. Only part of the results is shown, so the mix of outcomes need not match the whole.

Results follow in this order: B2AR ag, Ecoli rRNA inh OD600, Ecoli rRNA inh RFP, UCH37 inh, Ecoli rRNA inh, ALR H2O2 inh, E coli growth, HNF4A DNA FP, FGF22 binding
CCOc1ccc(Cc2c(O)nc(SC)[nH]c2=O)cc1
 : ·, 10, -0.3, ·, 11, ·, ·, 0.4, i
Cc1ccc(S(=O)(=O)N2CCN(C(=O)c3n[nH]c(=O)c4ccccc34)CC2)cc1
 : 0, 13, 2.3, 1.3, 9, 4, 0.71, 0.2, i
CCOc1ccc(Nc2nc(Cc3nnc(SCC(=O)c4ccc(C)c(C)c4)o3)cs2)cc1
 : 0, -2, -4.8, 2.7, -9, -2, 0.68, -1.9, i
O=C(CCN1C(=O)c2cccc3cccc(c23)C1=O)N1CCOCC1
 : 7, -23, -3.7, -66, -18, 1, 0.67, -1.7, i
O=S(=O)(c1ccc(Cl)c(Cl)c1)N1CCc2nc3ccccc3n2CC1
 : -11, ·, ·, 3.1, ·, ·, 0.65, 7.6, ·
Cc1ccc(S(=O)(=O)NCc2ccco2)cc1C
 : 1, ·, ·, 0.0, ·, -6, 0.64, -2.7, ·
COc1ccccc1N1CCN(/N=C/c2cc(OC)c(OC)c(OC)c2)CC1
 : 4, ·, ·, ·, ·, 27, ·, -0.8, ·
CCOC(=O)c1ccc(NC2=CC(=O)C(=O)c3ccccc32)cc1
 : 7, ·, ·, 4.8, ·, -18, 0.73, -0.2, ·
NC(=O)N\N=C/C=C/C=C/c1ccc(F)cc1
 : -3, 8, 1.2, ·, 12, 13, ·, 2.4, i
COc1cc(C(=O)NNC(=O)c2cc(=O)[nH]c3ccccc23)cc(OC)c1OC
 : 1, 13, -1.5, -16, 4, -1, 0.7, 0.8, i
CCC(=O)N1CCN(c2ccccc2NC(=O)c2ccc([N+](=O)[O-])o2)CC1
 : -10, -11, -6.7, 6.5, -8, -23, 0.66, 1.6, i
Cc1ccc(S(=O)(=O)N2CCN(C(=O)N3CCOCC3)C2c2ccc(N(C)C)cc2)cc1 (configuration not stated)
 : -5, ·, ·, 2.3, ·, ·, 0.71, -2.6, ·
C=CCOC(=O)C1=C(C)NC(SCC(=O)Nc2nccs2)=C(C#N)C1c1ccc(Cl)cc1 (configuration not stated)
 : 7, -11, 2.5, 1.6, -18, 15, 0.78, 5.4, ·
CC(C)(O)CN(C(=O)c1ccccc1)C1CCCCC1
 : -3, 5, -1.0, ·, 5, ·, ·, 2.7, i
CCN(CC(=O)Nc1ccccc1C(F)(F)F)C(=O)CN1C(=O)NC2(CCCCC2)C1=O
 : -1, 14, 2.4, 3.5, 5, 1, 0.66, 4.7, i
CCOC(=O)C(NC(=O)c1ccc(F)cc1)(Nc1nnc(C)s1)C(F)(F)F (configuration not stated)
 : -3, ·, ·, 0.7, ·, 2, 0.71, -2.0, ·
O=C(NCC1COc2ccccc2O1)C1C2C=CC3(CN(Cc4ccccc4Cl)C(=O)C13)O2 (configuration not stated)
 : 4, ·, ·, -2.5, ·, -14, 0.69, -0.5, ·
COc1cccc(-c2noc(-c3ccc(Cl)nc3)n2)c1
 : -1, 10, -14, 2.3, 9, -2, 0.68, 0.1, i
Cc1[nH]n(-c2ccc(Cl)cc2)c(=O)c1C(=O)c1ccccc1
 : 5, -79, -13, 5.7, -49, -3, 0.65, 6.4, i
O=C(O)C(O)c1ccco1 (configuration not stated)
 : -9, ·, ·, 0.5, ·, ·, 0.7, -36, ·
C=CCNC(=O)C1COc2ccccc2O1 (configuration not stated)
 : 2, 7, 1.5, 0.4, 7, -4, 0.69, 0.1, i
O=c1oc2ccc(Cl)cc2cc1-c1ccccc1
 : 25, ·, ·, -31, ·, -40, 0.72, 1.1, ·
Cc1ccc(-c2cc(C(=O)O)c3cc(Br)ccc3n2)o1
 : -1, -1, 0.8, -247, 10, ·, 0.65, -3.2, i
CC1CC(=O)C(C(C2=C(O)CC(C)CC2=O)c2ccccc2)=C(O)C1 (configuration not stated)
 : 3, 13, -0.3, 0.9, 3, ·, 0.63, -2.8, i
COc1ccc(CC(=O)Nc2ccc(S(=O)(=O)Nc3nccs3)cc2)cc1
 : 12, 5, -0.5, 2.5, 1, 28, 0.69, -0.8, i
C(=N\Nc1nc(-c2cccnc2)nc2ccccc12)/c1ccccc1
 : 13, ·, ·, ·, ·, 4, ·, 1.5, i
CC(C)CC(=O)Nc1sc2c(c1C#N)CC(C)(C)NC2(C)C
 : -12, ·, ·, 2.5, ·, 1, 0.68, -1.5, ·
CCOC(=O)/C=c1\s/c(=C\c2ccc3cc(OC)ccc3c2)c(=O)n1CC(=O)NCc1ccc2c(c1)OCO2
 : 6, 14, -0.1, ·, 13, 0, ·, 64, i
Cn1c(=O)c2c(nc(NCCNC(=O)c3ccco3)n2Cc2ccc(Cl)cc2Cl)n(C)c1=O
 : -10, ·, ·, 0.6, ·, -7, 0.68, 1.7, ·
CC(C)(C)c1ccc(NC(=S)NCc2cccs2)cc1
 : 6, ·, ·, 4.7, ·, -4, 0.63, -0.7, ·
Cc1ccc(S(=O)(=O)N2C3CCCCC3O[C@H]2CC(=O)Oc2ccccc2)cc1 (some centres not stated)
 : ·, 4, 3.4, ·, -4, ·, ·, 2.6, i
CC(=O)CCC(=O)N1CCCC(N2CCN(c3cccc(Cl)c3)CC2)C1 (configuration not stated)
 : 3, 9, 3.1, 0.6, 14, ·, 0.7, -0.6, i
CCOC(=O)c1ccc(NC(=O)c2ccccc2[N+](=O)[O-])cc1
 : 1, ·, ·, 4.1, ·, 2, 0.63, 0.7, ·
O=C(CN(Cc1ccccc1)C(=O)CNS(=O)(=O)c1ccc(F)cc1)NCC1CCCO1 (configuration not stated)
 : -2, 0, -1.1, 0.3, 0, 4, 0.67, -0.4, i
O=C(NC12CC3CC(CC(C3)C1)C2)c1cncc(O)c1
 : -4, ·, ·, -2.9, ·, -10, 0.69, -2.1, ·
O=S(=O)(c1ccc(F)cc1)N1CCN(c2ccc(-c3ccccc3)nn2)CC1
 : 0, 8, -2.1, 4.4, 8, ·, 0.71, -2.3, i
O=C(COC(=O)/C=C/c1cccc(F)c1)NC(=O)NC1CCCC1
 : -1, 2, 0.1, 0.0, 2, -2, 0.64, -1.3, i
N/C(=N\OC(=O)c1ccccc1)c1ccn[nH]1
 : 6, 4, 3.2, 5.0, 8, 8, 0.7, 2.9, i
O=c1cc(CO)oc(C(Nc2ccccn2)c2ccccc2Cl)c1O (configuration not stated)
 : 6, 7, 6.0, 5.7, 6, ·, 0.68, 2.3, i
CCOC(=O)N1CCN(C(=O)c2[nH]c(C(F)(F)F)nc2-c2ccccc2)CC1
 : ·, 1, 1.1, ·, -13, ·, ·, -0.2, i
O=C(OCc1nnc(-c2ccccc2)o1)C1CCN(C(=O)c2ccc(Cl)cc2)CC1
 : -1, -14, -1.4, 2.2, -10, ·, 0.69, -1.3, i
O=C(c1ccco1)c1coc2c1cc(O)c1ccccc12
 : 6, ·, ·, 3.7, ·, -56, 0.72, -1.6, i
COc1ccc(N2CCC(CNC(=O)Nc3ccc(C)c(C)c3)C2)cc1 (configuration not stated)
 : 5, 5, 12, 3.3, 3, 15, 0.73, 9.5, i
CN(CC(=O)Nc1cccc(F)c1)C(=O)CCCn1c(=O)oc2ccccc21
 : -4, 6, 0.6, -0.9, 5, -10, 0.58, 0.9, i
Cc1cc(C(=O)OCC(=O)N2c3ccccc3NC(=O)C2(C)C)c(C)n1-c1ccccc1
 : 3, -33, -9.4, 1.2, -9, -3, 0.65, 1.0, i
CC(=O)Nc1c(C)nn(-c2ccc(C)c(C)c2)c1C
 : -1, ·, ·, 1.8, ·, 1, 0.68, -2.9, ·
COCc1c(C(=O)OCC(=O)N2c3ccccc3CC2C)oc2ccccc12 (configuration not stated)
 : 9, ·, ·, 2.0, ·, -16, 0.72, 3.5, ·
O=C(Cn1nnc(-c2cccs2)n1)N1CCOCC1
 : -6, 13, 1.5, 4.0, 4, 2, 0.69, -4.8, ·
NS(=O)(=O)c1ccc(CNC(=O)c2cc(=O)c3ccccc3o2)cc1
 : -7, 13, 1.0, 1.7, 14, -1, 0.7, 0.1, i
COc1cc(NC(=O)COC(=O)c2ccc(C)c(S(=O)(=O)N3CCCCC3)c2)c(C)cc1[N+](=O)[O-]
 : 14, -2, -2.6, 3.4, 1, -3, 0.66, -0.2, i
CCCc1nc2ccc(NC(C)=O)cc2c(=O)n1Cc1cccc(Cl)c1
 : -4, 3, 2.3, -2.2, 8, -2, 0.7, -1.8, ·
Cc1ccc(CSCC(=O)N2CCOCC2)cc1
 : -19, ·, ·, 1.0, ·, -1, 0.77, 1.8, ·
O=C(CN1C(=O)C2C3C=CC(C3)C2C1=O)NCc1ccco1 (configuration not stated)
 : 2, ·, ·, -6.6, ·, -4, 0.71, -1.9, ·
Nc1nonc1-n1nnc(C(=O)N/N=C/c2cccc(Cl)c2)c1CN1CCCCCC1
 : 4, -1, 1.8, ·, 3, -3, ·, 1.6, i
CCOc1ccc(N2C(=O)/C(=C/c3ccccc3)N=C2SC)cc1
 : -4, 8, 9.3, -1.6, -7, ·, 0.68, 4.7, i
CCN(CC)c1ccc(-c2nc3cnccn3c2NC2CCCC2)cc1
 : ·, ·, ·, -123, ·, ·, 0.72, 14, ·
CCC(C)[C@H](NC(=O)[C@@H]1CSC2c3ccccc3C(=O)N21)C(=O)NCc1ccncc1 (some centres not stated)
 : -1, 14, 0.6, 6.4, 16, -3, 0.72, 1.1, i
COc1ccc(C(=O)NC2CC2)cc1OC1CCN(Cc2ccc(Cl)cc2)CC1
 : -12, ·, ·, 1.3, ·, -4, 0.68, 0.6, ·
COc1ccc([C@H]2N[C@]3(CCCN(Cc4ccc(C(F)(F)F)cc4)C3=O)[C@H]3C(=O)N(C)C(=O)[C@@H]23)cc1
 : ·, -20, -3.5, ·, -6, ·, ·, -1.7, i
Nc1ncnc(NNC(=O)CNC(=O)c2c(F)cccc2Cl)c1[N+](=O)[O-]
 : 1, 14, -0.5, 6.6, 4, -7, 0.73, -5.7, i

The listing continues.
Results follow in this order: B2AR ag, Ecoli rRNA inh OD600, Ecoli rRNA inh RFP, UCH37 inh, Ecoli rRNA inh, ALR H2O2 inh, E coli growth, HNF4A DNA FP, FGF22 binding
CC1CCC(NC(=O)Cn2c(=O)oc3cc(S(=O)(=O)N4CCCC4)ccc32)CC1 (configuration not stated)
 : 7, 15, -1.1, 4.1, 12, -3, 0.74, -0.9, i
COc1ccc(C(=O)OCC(=O)Nc2ccc(F)c(F)c2)cc1OC
 : 7, ·, ·, 2.4, ·, -6, 0.69, 0.4, ·
O=C1CCC([N+](=O)[O-])C(c2ccc(Br)cc2)N1 (configuration not stated)
 : -4, ·, ·, 2.2, ·, -2, 0.64, -0.2, ·
CCN1CCSc2ccc(C(=O)NCc3cc(Br)ccc3OC)cc21
 : 6, -13, -6.5, -23, 4, 3, 0.75, 3.4, i
Cc1c(OC(C)C(=O)NCC2CCC(C(=O)O)CC2)ccc2c3c(c(=O)oc12)CCCC3 (configuration not stated)
 : 9, 5, 3.9, -59, 11, -6, 0.63, 4.4, i
O=C(CCc1ccccc1)c1nnc(-c2ccccc2)o1
 : -2, -18*, -1.1*, 0.9, -23*, 10, 0.65, 0.4, i
